High-throughput results (PubChem)
PK Bst: alters activity of Bacillus stearothermophilus pyruvate kinase; hit rate 1.2% among 51,000; Potency, µM; partly purified Bacillus stearothermophilus pyruvate kinase, luminescence ATP production; ribose 5-phosphate activator present at AC10; in the data active means potency below about 11 µM; inconclusive means mostly about 12 µM to 25 µM; inactive means weaker than that;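 the screen sought inhibitors and activators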;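 further: potency means the concentration at half of the fitted maximal effect; scaled between full activation by ribose 5 phosphate and full inhibition by luteolin; about four in five hits inhibit and the cells do not say which; series up to 57 µM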
TsaE inh: inhibitors of E. coli YjeE (TsaE); AID 605; P0AF67; hit rate 0.05% among 71,000; purified YjeE, fluorescence polarisation of a bound ADP probe; Potency, µM; active = well fitted falling curve; inconclusive = weaker or top-dose-only fall, or a rising curve; inactive = flat or poorly fitted curve;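 further: top concentration of the series not given in the record; excess ADP was the control for the full effect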
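Purified YjeE (10 uM) with BODIPY Texas Red-labeled ADP probe (2 uM); compounds pin-transferred, 15 min at room temperature. Binding inhibition read as decreased fluorescence polarization; ADP titration as control.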
Starred values were filed as active, the others as inactive; i = inactive; u = inconclusive; x = no result given.

Start of the data: the first 7 entries as a preview:
PK Bst	TsaE inh	mol
x	i	CC1CCCN(C(=O)C2CCN(S(=O)(=O)c3cccc4cccnc34)CC2)C1 (stereo not drawn)
>57	i	CCOC(=O)N1CCC(NC(=O)C(CC(C)C)NC(=O)C2CCCCC2)CC1 (stereo not drawn)
>57	i	COc1ccc(CCN2C(=O)CC(N3CCN(c4ccccn4)CC3)C2=O)cc1OC (stereo not drawn)
x	i	CCOc1ccc(N(CC(=O)Nc2ccc3c(c2)OCCO3)S(=O)(=O)c2c(C)noc2C)cc1
>57	i	CCC(c1nnnn1CS(=O)(=O)c1ccc(C)cc1)N1CCN(c2nc3ccccc3s2)CC1 (stereo not drawn)
>57	i	CCCNC(=O)c1cc(S(=O)(=O)N2CCc3ccccc32)ccc1F
>57	i	Cc1cc(N2C(=O)CC(N3CCN(C(c4ccccc4)c4ccccc4)CC3)C2=O)no1 (stereo not drawn)

The whole of this part, previewed entries included:
PK Bst	TsaE inh	mol
x	i	CC1CCCN(C(=O)C2CCN(S(=O)(=O)c3cccc4cccnc34)CC2)C1 (stereo not drawn)
>57	i	CCOC(=O)N1CCC(NC(=O)C(CC(C)C)NC(=O)C2CCCCC2)CC1 (stereo not drawn)
>57	i	COc1ccc(CCN2C(=O)CC(N3CCN(c4ccccn4)CC3)C2=O)cc1OC (stereo not drawn)
x	i	CCOc1ccc(N(CC(=O)Nc2ccc3c(c2)OCCO3)S(=O)(=O)c2c(C)noc2C)cc1
>57	i	CCC(c1nnnn1CS(=O)(=O)c1ccc(C)cc1)N1CCN(c2nc3ccccc3s2)CC1 (stereo not drawn)
>57	i	CCCNC(=O)c1cc(S(=O)(=O)N2CCc3ccccc32)ccc1F
>57	i	Cc1cc(N2C(=O)CC(N3CCN(C(c4ccccc4)c4ccccc4)CC3)C2=O)no1 (stereo not drawn)
>57	i	COCCN(Cc1cc2cc3c(cc2[nH]c1=O)OCO3)C(=O)c1cccs1
x	i	NC(Cc1ccccc1)(C(=O)O)C(=O)O
>57	i	CCC1CCC2(CC1)NC(CO)(CO)CO2 (stereo not drawn)
x	i	O=C(c1cc(-c2ccc(Cl)c(Cl)c2)on1)N1CCCC1
>57	i	Cc1ccc(/C=N/n2c(C)nnc2C)s1
x	i	COC(=O)N1CCC2(CCCN(c3ncccn3)C2)CC1
x	i	CCc1cc2c(NCCC(=O)O)ncnc2s1
>57	i	Cc1ccc2cccc(OCC(=O)NCc3ccco3)c2n1
x	i	C[C@@H](CSC(=N)N)C(N)=O
>57	i	Cn1c(SCc2ccccc2)nnc1-c1ccc2c(c1)OCO2
x	i	CCc1nc(SCc2cccnc2)c2c(=O)n(C)c(=O)n(C)c2n1
>57	i	CCOc1ccc2nc(SC(C)C(N)=O)[nH]c2c1 (stereo not drawn)
>57	i	COc1cc(C2/C(=C(/O)c3ccc(OCC(C)C)cc3)C(=O)C(=O)N2CCN(C)C)ccc1O (stereo not drawn)
x	i	c1cncc(CNc2ncncc2-c2ccoc2)c1
>57	i	COC(=O)c1ccc(C2c3c(oc4ccc(F)cc4c3=O)C(=O)N2CCO)cc1 (stereo not drawn)
x	i	O=C(Nc1ccc(N2CCCCC2)c(Cl)c1)c1cccnc1
x	i	CCNc1ccc2c(Cl)cc(=O)oc2c1
>57	i	CC(=O)N1CC2(CC(=O)OC(C)C)CN(C(C)=O)CC(CC(=O)OC(C)C)(C1)C2=O

Of the compounds above, two contain fluorine.
PK Bst	TsaE inh	mol
>57	i	CCCNC(=O)c1cc(S(=O)(=O)N2CCc3ccccc32)ccc1F
>57	i	COC(=O)c1ccc(C2c3c(oc4ccc(F)cc4c3=O)C(=O)N2CCO)cc1 (stereo not drawn)

Carrying on:
PK Bst	TsaE inh	mol
>57	i	O=C(c1ccco1)N1CCN(C(c2ccccc2F)c2nnnn2CC2CCCO2)CC1 (stereo not drawn)
>57	i	Cc1cc(N2CCOCC2)nc(SCC(=O)c2ccccc2)n1
>57	i	O=C(CSc1nnc(-c2ccccc2O)o1)Oc1ccc(OCc2ccccc2)cc1
x	i	Cc1oc(-c2ccccc2)nc1CS(=O)CC(=O)N1CCc2ccccc2C1 (stereo not drawn)
x	i	CCOc1ncccc1C(=O)Nc1cccc(C(=O)Nc2cccc(S(=O)(=O)CCO)c2)c1
>57	i	Cc1ccc2nc(SCC(=O)NCc3ccco3)c(C#N)cc2c1
x	i	N=C(N)SCCN
>57	i	CC(=O)Nc1ccc(S(=O)(=O)N2CCSC2c2ccc(C)cc2)cc1 (stereo not drawn)
>57	i	COC(=O)c1[nH]c2cccc(C)c2c1NC(=O)CN1CCN(c2ccccc2OC)CC1
u	i	CCCN1C(=O)/C(=C2\SC(N3CCCCC3)=NC2=O)c2ccccc21
>57	i	CC(C)CCNC(=O)c1cccc(Cl)c1
x	i	CC(CCc1ccc(O)cc1)N(C)CCc1ccccc1 (stereo not drawn)
>57	i	CCOC(=O)N1CCN(C(=O)CC(C(=O)N2CCc3ccccc32)n2ccnc2)CC1 (stereo not drawn)
>57	i	CCCC(=O)Nc1cc(C)c(NC(=O)C23CC4CC(CC(C4)C2)C3)cn1
>57	i	COC(=O)Cc1cc(=O)n(-c2nc3ccccc3s2)[nH]1
x	i	CC(C)CN1CCC2(CC1)CCN(C(=O)c1cccn1C)CC2
>57	i	COc1ccc(NC(=O)CC2C(=O)N(c3ccc(OC)cc3)C(=O)N2CCN2CCN(C)CC2)cc1 (stereo not drawn)
>57	i	COc1ccc(NC(=O)Cn2nnc(C(=O)NCc3ccccc3OC)c2N)cc1Cl
>57	i	CC1(C)c2ccccc2N2CCC(=O)NC21/C=C/c1ccco1 (stereo not drawn)
>26	x	O=C(Nc1cccnc1)c1cccnc1
x	i	CCNc1ncc2nc(-c3cc(F)cc(F)c3)c(=O)n(Cc3ccc(F)cc3)c2n1
>57	i	O=C(O)c1ccc(CS(=O)c2cccc(C(F)(F)F)c2)o1 (stereo not drawn)
5.4*	i	COc1ccc(NC(=O)C2CCCN(S(=O)(=O)c3ccc(C)cc3)C2)cc1OC (stereo not drawn)
x	i	Cc1ccc(N(C)C(=O)N2CCN(c3ccccn3)CC2)cc1
>57	i	c1ccc(N=P(c2nc3ccccc3o2)(N2CCOCC2)N2CCOCC2)cc1
x	i	COc1cc(NC(=O)CN2C(=O)c3ccccc3C2=O)c(C(=O)O)cc1OC
>57	i	O=C(NC1=NCCS1)c1ccncc1
x	i	O=C1NCCCC1C(=O)NCCNC(=O)C(F)(F)F (stereo not drawn)
>57	i	Cn1c(=O)c2c(nc(N3CCCCCC3)n2CC(=O)c2ccc(Br)cc2)n(C)c1=O
>57	i	COC(=O)C1CCN(C(=O)COC(=O)Cc2c[nH]c3ccccc23)CC1
u	i	O=c1sc(Nc2ccccc2)nc2ccsc12
x	i	O=C(NCc1ccncc1)Nc1ccccc1Cl
>57	i	O=C(Nc1ccccc1)N(Cc1cccs1)C1CCCC1
x	i	Cc1noc(C)c1-c1ccc2ncnc(N3CCN(C)CC3)c2c1
>57	i	CCOc1cc(S(=O)(=O)N2CC=C(c3ccc(F)cc3)CC2)c(OCC)cc1-n1cnnn1
x	i	COC(=O)c1ccc(C(NC(=O)OCc2ccccc2)/C(C)=C/[C@@H](C)C(=O)NCc2cccnc2)cc1 (stereo partly drawn)
>57	i	COCCN(Cc1cc2cc3c(cc2n2nnnc12)OCO3)C(=O)c1ccccc1F
>57	i	CC1=C(C(=O)N2CCOCC2)C(c2ccccc2F)C2=C(CCCC2=O)N1 (stereo not drawn)
>57	i	CCOC(=O)N1CCC(NC(=O)CCc2c(C)nc3c(c(C)nn3C(C)(C)C)c2C)CC1
>26	x	CCOC(=O)C1CCN(c2nc3ccccc3nc2C(C#N)C(=O)NCCc2ccccc2)CC1 (stereo not drawn)
x	i	Cn1cccc1C(=O)N1CCC2(CCN(Cc3ccc(C#N)cc3)CC2)CC1
>57	i	O=C1NCCc2c1[nH]c1c(Cl)ccc(Cl)c21
>57	i	CC1CCCCN1C(=O)Cc1ccc(Cl)cc1 (stereo not drawn)
x	i	COc1cccc(Cn2c(=O)c(-c3cc(F)cc(F)c3)nc3cncnc32)c1
>57	i	O=C(Cn1c(=O)c2c(ncn2C2CCCC2)n(Cc2ccccc2)c1=O)N1CCc2ccccc21
x	i	Cc1cc(S(=O)(=O)NC2CCCC2)ccc1F
>57	i	CN1C(=O)C(CC(=O)N2CCN(C(c3ccccc3)c3ccccc3)CC2)N(C)C1=O (stereo not drawn)
>57	i	Cc1cc(S(=O)(=O)N(Cc2ccccn2)Cc2ccco2)ccc1-n1cnnn1
x	i	CCOC(=O)c1c(C)c(-c2ccccc2)n(CC(=O)N2CCN(C)CC2)c1C
>57	i	COCC(=O)N(Cc1cc2cc(OC)ccc2[nH]c1=O)c1ccc(C)cc1

Record cards, from the list above. Values in the order: PK Bst, TsaE inh
Record of `Cn1cccc1C(=O)N1CCC2(CCN(Cc3ccc(C#N)cc3)CC2)CC1` : x, i
Record of `COCCN(Cc1cc2cc3c(cc2n2nnnc12)OCO3)C(=O)c1ccccc1F` : >57, i

New compounds follow.
PK Bst	TsaE inh	mol
>57	i	O=C(c1cccc(S(=O)(=O)N2CCCC2)c1)N1CCN(c2ccccc2F)CC1
>57	i	C/C(N)=C(/C#N)C(=O)CSc1nnnn1-c1ccc(C)cc1
>57	i	COc1ccccc1NS(=O)(=O)c1cc(C(=O)NCCN2CCOCC2)ccc1Cl
>57	i	O=S(=O)(c1ccc2oc(-c3ccncc3)nc2c1)c1ccc2oc(-c3ccncc3)nc2c1
>57	i	CCOc1cc(-n2cnnn2)c(OCC)cc1NC(=O)c1cnccn1
>26	x	N#CCSc1nc2c(cc1C#N)CCCCCC2
x	i	C/C(=C\C(=O)c1cccnc1)Nc1ccc(C)c(C)c1
>57	i	COCCn1c(SCC(=O)Nc2sc(C)c(C)c2C#N)nnc1C(C)C
>57	i	O=C(OCc1nnc(-c2ccccc2)o1)c1ccc(S(=O)(=O)NCc2ccco2)cc1
2.9*	i	O=c1c2cccc3c2c(nn1CN1CCOCC1)-c1ccccc1-3
x	i	NNC(=O)CS(=O)(=O)Nc1ncccn1
x	i	COc1ccc(C2CC(c3ccc(C)cc3)Nc3ncnn32)cc1 (stereo not drawn)
>57	i	CCCCOCC(O)Cn1c(C)nc2ccccc21 (stereo not drawn)
>57	i	CCOc1ccc(-n2c(C)nc3cc(C(=O)NCc4ccco4)ccc32)cc1
x	i	COc1ncc2nc(-c3ccccc3)c(=O)n(C[C@H]3CCCO3)c2n1
>57	i	CCOC(=O)c1c(NC(=O)C(F)(OC)C(F)(F)F)sc(C(=O)N2CCCCC2)c1C (stereo not drawn)
>57	i	Cc1ccc(S(=O)(=O)NCC(=O)N(CC(=O)NCc2ccco2)Cc2ccc3c(c2)OCO3)cc1
>57	i	CC(C)CCn1cnc2c(cnn2-c2ccc(Cl)cc2)c1=O
>57	i	COc1ccc(C2C(=O)N(C3CCCCC3)CC(=O)N2Cc2ccc3c(c2)OCO3)cc1 (stereo not drawn)
>57	i	COc1ccc(-n2c(N)c(Br)c(=O)[nH]c2=O)cc1
x	i	Cc1nc2cnc(Oc3cccc(Cl)c3)nc2n(Cc2ccc(F)cc2)c1=O
>57	i	O=C(CCC1N=C2c3ccccc3N=C(SCc3ccc(F)cc3)N2C1=O)NCc1ccco1 (stereo not drawn)
>57	i	COc1ccc2c(c1)C1CC(C)(NC(=O)C1C(=O)c1ccccc1)O2 (stereo not drawn)
>57	i	Cc1ccc2nc(NC3=NCN(Cc4ccccc4)CN3)nc(C)c2c1
x	i	O=[N+]([O-])c1ccccc1CCO
>57	i	COc1ccc(S(=O)(=O)CCC(=O)N2c3ccccc3CC2C)cc1 (stereo not drawn)
>57	i	COc1ccc(OC)c(S(=O)(=O)N2CCC(C(=O)N3CCN(Cc4ccccc4)CC3)CC2)c1
>57	i	Cc1cc(N2CCN(S(=O)(=O)c3ccc4c(c3)OCCO4)CC2)n2ncnc2n1
>57	i	Cc1cccc(-n2c(SCC(N)=O)nnc2-c2ccccn2)c1C
x	i	COc1ccccc1CN1CC2(CCN(C(=O)c3cccc(F)c3)CC2)C1
>57	i	Cc1cnc(NC(=O)CSc2nnc(-c3ccncc3)n2C2CCCCC2)s1
x	i	CCOC(=O)c1c2n(c3ccc(O)cc13)CCCCC2
>57	i	COc1ccc(CNc2nc(SC)n[nH]2)cc1OC
>57	i	CC(=O)N1C(=O)C2(C(C#N)=C(N)Oc3c2c(C)nn3-c2ccccc2)c2ccccc21 (stereo not drawn)
>57	i	COc1ccccc1-c1c(C)nn2c(C)c(C(C)=O)cnc12
>57	i	O=C(Nc1ccccc1N1CCCC1)c1ccco1
>57	i	CCc1nnc(NC(=O)c2cccc(S(=O)(=O)N3CCN(c4ccccc4)CC3)c2)s1
>57	i	O=C(Nc1nccs1)c1ccc(S(=O)(=O)NCC2CCCCC2)cc1
x	i	CCCCc1ccc(NC(=O)CC(C)=O)cc1
x	i	N=C1C(c2ccccc2)=C(O)C2CCc3ccccc3N12 (stereo not drawn)
>57	i	O=C(CN1CCN(c2ncccn2)CC1)N(Cc1ccccc1)c1ccc(F)cc1
x	i	CCOC(=O)C1CCCN(C(=O)N2CCOCC2)C1 (stereo not drawn)
>57	i	COCCn1c(=S)[nH]c2cc(C(=O)N3CCC(C(N)=O)(N4CCCCC4)CC3)ccc2c1=O
>57	i	COc1cccc(C(=O)N2CCCc3ccccc32)c1
>57	i	CCOC(=O)C1C(=O)NC(N2CCN(CC)CC2)=NC1c1ccccc1 (stereo not drawn)
>11	i	CCOc1cc(C(=O)Nc2ccc3c(c2)OCO3)ccc1OC(F)F
x	i	O=C1C=C(NCCO)C(=O)c2cnccc21

An excerpt; count on the stated rates, not on these rows.
